Compound activity (PubChem BioAssay)
H5N1 CPE: MDCK cell protection from H5N1 avian flu; cytopathic effect, luminescence, 72 h; hits give high values; no value below 0 was filed and about half of the inactive calls have no number; reference of the scale not given here; inhibition, % at 50 µM; 0.07% of 96,000 active; in the data active means inhibition above about 25%
Numbers without * were called inactive; i = inactive.

| canonical_smiles | H5N1 CPE |
| --- | --- |
| Cc1ccccc1-c1nc(CS(=O)(=O)CC(=O)N2CCc3ccccc32)c(C)o1 | i |
| CCCC(=O)Nc1nc2c(OC)ccc(OC)c2s1 | i |
| CCOC(=O)N1CCC(Nc2cccc(SC)c2)CC1 | i |
| CCN(CC(=O)Nc1ccc2c(c1)OCCO2)C(=O)C1CCCCC1 | i |
| O=C(c1cnn2c1NC(c1ccco1)CC2C(F)(F)F)N1CCN(c2cccc(Cl)c2)CC1 (configuration not stated) | i |
| COc1ccc(C(=O)N(CC(=O)NC(C)(C)C)c2ccc3c(c2)OCCO3)cc1OC | 0.5 |
| COc1ccc(C2=NN3C(C2)c2ccccc2OC32C(=O)N(C)c3ccccc32)cc1 (configuration not stated) | 3.6 |
| COc1ccc(C2(CNC(=O)CCC(=O)O)CCCC2)cc1 | i |
| N#CC1(c2nc3ccccc3[nH]2)CC1c1ccc2c(c1)OCO2 (configuration not stated) | i |
| O=C(c1ccc(Cl)c(S(=O)(=O)N2CCCCCC2)c1)N1CCN(c2ccccn2)CC1 | i |
| Cc1cccc(C(=O)NC(=S)N2CCN(C)CC2)c1 | i |
| Cc1nn(CC(=O)O)c2ccccc12 | 0.3 |
| Cc1ccc(OCC(=O)n2nc(C)cc2C)c(C)c1 | 0.3 |
| Cc1ccnc(NC(=S)NC(=O)/C=C/c2ccccc2)c1 | i |
| CCOC(=O)c1c(NC(NC(C)=O)C(Cl)(Cl)Cl)sc(C(C)=O)c1C (configuration not stated) | 1.4 |
| COc1cc(C(c2c(C)[nH][nH]c2=O)c2c(C)[nH][nH]c2=O)ccc1OS(=O)(=O)c1ccccc1 | i |

In another format: results already given
Cc1cccc(C(=O)NC(=S)N2CCN(C)CC2)c1
  H5N1 CPE = i
Cc1nn(CC(=O)O)c2ccccc12
  H5N1 CPE = 0.3
O=C(c1ccc(Cl)c(S(=O)(=O)N2CCCCCC2)c1)N1CCN(c2ccccn2)CC1
  H5N1 CPE = i

Remaining list, next part:
| canonical_smiles | H5N1 CPE |
| --- | --- |
| COCCN(CCOC)S(=O)(=O)c1ccc(C(=O)Nc2nnc(C3CC3)o2)cc1 | 2.1 |
| COCCCNC(=O)CN1CCN(Cc2ccccc2Cl)C1=O | 0.4 |
| COc1ccc(C=NCCC2(O)CC(C)N(C)CC2C)cc1 (configuration not stated) | i |
| CC(CCc1ccccc1)NC(=O)C1CCCN(c2nnc(-n3cccc3)s2)C1 (configuration not stated) | 2.6 |
| c1cc(-c2nnc(-c3ccncc3)o2)ccn1 | i |
| CC(C)(C)NC(=O)NC(=O)CSc1nnc2ccccn12 | i |
| COc1ccc(S(=O)(=O)Cc2ccc(C(=O)NCCc3ccc(S(N)(=O)=O)cc3)o2)cc1 | 0.3 |
| Cc1ccccc1CSCCNC(=O)c1ccc(N(C)S(=O)(=O)c2ccccc2)cc1 | i |
| N#Cc1cc(Sc2ccccn2)c(Sc2ccccn2)cc1C#N | i |
| Cc1ccccc1NC1=NC(=S)N(c2ccccc2)C12CCOC(C)(C)C2 (configuration not stated) | 0.3 |
| Cc1cc(C)n2nc(-c3cnn(C)c3C(F)(F)F)c(Cl)c2n1 | i |
| CC(C)(C)NC(=O)Cn1c(=O)oc2cc(S(=O)(=O)N3CCc4ccccc43)ccc21 | 0.0 |
| N#Cc1ccccc1NC(=O)COC(=O)CSc1nc2ccccc2o1 | 3.0 |
| Cc1ccc(S(=O)(=O)/N=C2/C=C(C3C(=O)CC(C)(C)CC3=O)C(=O)c3ccccc32)cc1 | i |
| CN1CCN(c2nc3ccccc3nc2C(C#N)C(=O)OC2CCCCC2)CC1 (configuration not stated) | i |
| O=C(CSc1nnc(-c2ccncc2)n1Cc1ccco1)c1ccc(Cl)cc1 | 2.1 |
| CSC1=NCCN1C(=O)c1c(-c2ccccc2Cl)noc1C | 1.3 |
| COCCNC(=O)Cn1cc2c(n1)CCC(C)C2 (configuration not stated) | i |
| CC(=O)Nc1ccc(OC(=O)c2ccccc2N)cc1 | i |
| COc1ccc(Br)cc1CNC(=O)C1CCN(S(=O)(=O)N2CCCCC2)CC1 | 0.4 |
| Cn1c(-c2ccc(F)cc2)cnc1SCC(=O)N1CCCCC1 | 0.4 |
| Cn1cnnc1SCC(=O)Nc1ccc2c(c1)CCC2 | 0.1 |
| C=CCN(CC=C)S(=O)(=O)c1ccc2nsnc2c1 | 0.1 |
| O=C1OCc2cc(NC(=O)C3CCCCC3)ccc21 | 0.7 |
| COc1ccc(C(C(=O)NC2CCCC2)N(CCN(C)C)C(=O)c2snc(C(N)=O)c2N)cc1 (configuration not stated) | i |
| Cc1ccc(NC(=O)/C(C#N)=C/c2ccc(Sc3nc(C)cc(C)n3)o2)cc1 | i |
| O=C(C1CCC(CNc2nc(=S)[nH]c3ccccc23)CC1)N1CCN(c2ccccn2)CC1 (configuration not stated) | i |
| C=CCSc1nnc(-c2ccncc2)n1-c1ccc(OCC)cc1 | 1.6 |
| Cc1cccc(Cn2c(SCCN3CCOCC3)nc3c2c(=O)n(C)c(=O)n3C)c1 | 0.6 |
| O=C(CN1C(=O)c2cccc3cccc1c23)N1CCN(c2ccccc2)CC1 | i |
| COc1cc(CN2CCC(C(=O)NC3CCCC3)CC2)cc(Br)c1O | 0.3 |
| CCc1nc(NCC(C)C)c(C#N)c2c1COC(C)(C)C2 | i |
| CC(C)[C@@H]1NC(=O)N(c2ccc(Oc3ccccc3)cc2)C1=O | i |
| O=C(Nc1ccccc1C(=O)N1CCN(Cc2ccccc2)CC1)c1ccccn1 | 0.0 |
| O=C(CSc1nnc(Cc2cc(=O)[nH]c(=O)[nH]2)n1-c1ccccc1)N1CCCc2ccccc21 | i |
| O=C(Nc1ccncc1)c1ccc(F)cc1 | i |
| COc1nc(N/N=C/c2ccccc2F)nc(N2CCCCC2)n1 | i |
| Cc1sc(NC(=O)CN(Cc2ccc(F)cc2)C(=O)C(C)C)c(C(N)=O)c1C | i |
| O=C(Nc1c(Cl)cccc1Cl)c1ccc(-c2ccccc2)cc1 | i |
| COc1ccccc1C(=O)NC(C)c1nc2ccccc2[nH]1 (configuration not stated) | 0.1 |
| CCOC(=O)C(C)Oc1cccc2c(=O)n(CC(=O)N3CCCc4ccccc43)ccc12 (configuration not stated) | i |
| CN(CCc1ccccn1)C1CC(=O)N(c2ccc(Cl)cc2)C1=O (configuration not stated) | i |
| CC(C)(C)n1nnnc1C(c1cccs1)N1CCN(C(=O)c2ccco2)CC1 (configuration not stated) | 2.8 |
| CCC(=NCCOc1ccc(Cl)cc1)c1c(O)n(C)c(=O)n(C)c1=O | 2.7 |
| CCOc1ccc(N/N=C(/C#N)C(N)=O)cc1 | 0.7 |
| Cc1ccccc1Cn1nc(C)c(NC(=O)c2cc3n(n2)C(C(F)F)CC(C(F)F)N3)c1C (configuration not stated) | 0.9 |
| O=C(NCc1ccco1)c1ccccc1NS(=O)(=O)c1ccc(Cl)s1 | 2.5 |
| COc1ccc(-n2c(N)c(C(=O)NCc3ccco3)c3nc4ccccc4nc32)cc1 | 0.3 |

Part of the list above, with each value named:
CCC(=NCCOc1ccc(Cl)cc1)c1c(O)n(C)c(=O)n(C)c1=O
  H5N1 CPE = 2.7
Cc1ccccc1Cn1nc(C)c(NC(=O)c2cc3n(n2)C(C(F)F)CC(C(F)F)N3)c1C (configuration not stated)
  H5N1 CPE = 0.9
O=C(NCc1ccco1)c1ccccc1NS(=O)(=O)c1ccc(Cl)s1
  H5N1 CPE = 2.5
CC(C)(C)n1nnnc1C(c1cccs1)N1CCN(C(=O)c2ccco2)CC1 (configuration not stated)
  H5N1 CPE = 2.8

(further entries)
| canonical_smiles | H5N1 CPE |
| --- | --- |
| O=C(CCN1CCN(C(=O)c2ccco2)CC1)Nc1ccc(F)cc1 | 0.1 |
| O=C1C(=O)N(Cc2cccnc2)C(c2ccccn2)/C1=C(/O)c1ccc(F)cc1 (configuration not stated) | i |
| O=C(CCc1nc(-c2ccccc2F)no1)NCc1ccco1 | 2.2 |
| CCOC(=O)c1cc2sc(C)cc2n1C(C)C(=O)OCC (configuration not stated) | i |
| O=S(=O)(NCc1ccccc1)c1cccc(S(=O)(=O)N2CCOCC2)c1 | i |
| CC(NC(=O)CCSc1nc(-c2ccc3c(c2)OCO3)cc(C(F)(F)F)n1)c1ccccc1 (configuration not stated) | 0.0 |
| CCCCNC(=O)c1cc2c(=O)n3cccc(C)c3nc2n(CCN2CCOCC2)c1=N | 1.9 |
| Cc1cc(C)nc(-n2nc(C)c3c(C)c(C)c(C)nc32)n1 | 0.2 |

Next structures follow.
molecule	H5N1 CPE
CCOC(=O)N1CCN(C(=O)Cn2nc(-c3ccc(Cl)cc3)ccc2=O)CC1	i
O=C(NCN1CCN(c2ccccc2F)CC1)c1ccccc1	i
CC(=O)c1c(N2CCOCC2)nc(=S)n(-c2ccc([N+](=O)[O-])cc2)c1C	0.9
Cc1nc(NS(=O)(=O)c2ccccc2)sc1NC(=O)OCCN(C)C	i
CCN1CCN(c2cc(C)c3cc(NC(=O)c4cccnc4Cl)ccc3n2)CC1	i
CN1CCN(C(=O)c2ccccc2-c2nc(-c3ccccc3)no2)CC1	0.2
Cc1csc(NC(=O)c2c(-c3c(Cl)cccc3Cl)noc2C)n1	0.3
CCOc1ccc(C(=O)O)cc1OC	i
COCCCn1cnnc1SCC(=O)Nc1ccc(S(=O)(=O)N2CCCC2)cc1	0.5
COc1cc2c(cc1OC)C1=C(C#N)CC/C(=N\S(=O)(=O)c3cccc(Cl)c3)N1CC2	0.1
COc1ccc(N2C(=O)CC(N(Cc3ccc(S(N)(=O)=O)cc3)C(C)=O)C2=O)cc1 (configuration not stated)	i
Cc1nn(CC2CCCCC2)c(N)c1-c1ccccc1	1.3
CC12CN3CC(C)(CN(C1)C3c1cccs1)C2 (configuration not stated)	0.2
COc1ccc2ccccc2c1CNCc1ccccn1	1.1
CCCOc1cccc(C(=O)Nc2cccnc2)c1	1.0
Cc1ccc(Nc2nc(-c3sc(NC(=O)c4ccco4)nc3C)cs2)cc1	0.1
O=C1CC(Nc2ccc(N3CCOCC3)cc2)C(=O)N1c1ccccc1F (configuration not stated)	1.3
COc1ccc(OC)c2[nH]c(=O)c(CCNC(=O)C3CCCCC3)cc12	0.1
O=C(O)c1ccccc1-c1ccccc1C(=O)Nc1cccc2ccccc12	i
CCCCCCn1c(C(C)NC(=O)c2ccco2)nc2ccccc21 (configuration not stated)	i
C=CCn1c(=N)n(CC(=O)O)c2ccccc21	i
COC(=O)c1cnn(-c2cc(Oc3cccc(C)c3)ncn2)c1N	0.5
O=C(CN(Cc1cccs1)C(=O)CNS(=O)(=O)c1ccc(Cl)cc1)NCc1ccco1	1.2
Cc1ccc(S(=O)(=O)N(C)c2ccc(C(=O)N3CCC(C(N)=O)CC3)cc2)cc1	0.1
CCc1ccc2[nH]c(=O)c(CN(Cc3ccccc3)C(=O)Nc3ccccc3OC)cc2c1	i
O=C(CCC(=O)c1cccs1)OCC(=O)N1CCN(S(=O)(=O)c2ccccc2)CC1	0.5
N#CCCn1cnc2ccccc21	i
CCN1c2nc3c(C)cccn3c(=O)c2CC2(C(=O)N(C)C(=O)N(C)C2=O)C1C (configuration not stated)	0.3
O=C(NC1CCCC1)C1CC(=O)N(C2CCCCCCC2)C1 (configuration not stated)	i
Oc1ccc(C2Nc3cccc4cccc(c34)N2)c(O)c1	0.2
CCOC(=O)c1c(-c2ccc(OC)cc2)csc1NC(=O)CNCc1ccco1	i
c1ccc2c(c1)CCN(c1nc3cc4c(cc3s1)OCCO4)C2	i
COc1ccc(-n2c(SCC(=O)Nc3ccc4c(c3)OCO4)nc3c(c2=O)SCC3)cc1	i
CC1(C)CC(c2nc(-c3ccc(Cl)cc3)cs2)CCS1 (configuration not stated)	0.5
CC(=O)Oc1ccc2ccccc2c1C(NC(=O)Cc1ccccc1)c1ccccc1Cl (configuration not stated)	2.4
CC1=C(C(=O)OC(C)C)C(c2cccs2)n2ncnc2N1 (configuration not stated)	1.1
CCOC(=O)C(NC(=O)c1ccc(Cl)cc1Cl)(Nc1ccc(C)cc1)C(F)(F)F (configuration not stated)	0.1
Cc1nc(-c2ccccc2)nc2[nH]ccc(=O)c12	7.2
CC(NC(=O)C1CC=CCC1C(=O)O)C1CC2CCC1C2 (configuration not stated)	0.1
Cc1ccc(CNC(=O)CCCOc2cc(=O)n(C)c3ccccc23)o1	1.0
O=C(c1cccs1)C1CN2CCC1CC2 (configuration not stated)	i
CC1CCN(S(=O)(=O)c2cccc(-c3nnc(-c4cccnc4)o3)c2)CC1	0.5
Cn1c(NCc2c[nH]c3ccccc23)nc2ccccc21	i
CCOC(=O)c1ccccc1NC(=O)c1ccc(F)cc1	i
Cc1ccc(SCCN2C(=O)NC(C)(C)C2=O)cc1	1.0
CCn1c(SCC(=O)N2CCCC2)nc2c1c(=O)n(C)c(=O)n2C	1.8
COc1ccc(NC(=S)NNC(=O)c2ccccc2OC(F)F)cc1	0.1
O=S(=O)(NCc1ccccc1)c1cccc2cccnc12	3.2
C/C(CCc1ccco1)=N/NC(=O)CCC(=O)Nc1cccc(Cl)c1	i
Cc1ccc(N2CC(C(=O)NC3CCSC3=O)CC2=O)cc1 (configuration not stated)	0.4
CCCCC(=O)N/N=C/c1ccc(Sc2cccc3cccnc23)o1	1.0
CC(C)N(Cc1nc(-c2ccc(Cl)cc2)no1)C(=O)C12CC3CC(CC(C3)C1)C2	0.7
COc1cccc(-c2nc(CS(=O)(=O)CC(=O)Nc3cccc(C)c3C)c(C)o2)c1	1.3
CCCN1C(=O)C(O)(CC(=O)c2ccc3c(c2)OCCO3)c2ccccc21 (configuration not stated)	i
CCCC(NS(=O)(=O)c1ccc(Br)cc1)C(=O)O (configuration not stated)	i
CCN(CC)C(c1ccc(F)cc1)c1nnnn1C1CCCCC1 (configuration not stated)	2.7
COc1ccc(CN=C2Nc3ccccc3CS2)cc1	i

An excerpt; the hit share may differ from the screen's.
